Compound activity (PubChem)
D2 agonist: human D2 receptor agonism in beta-arrestin assay; AID 624465; actives 0.084% (n = 360,000); activation, % (concentration not given with the values); P14416; DiscoveRx PathHunter D2 beta-arrestin, luminescence, 90 min; 100% = 57 uM dopamine signal; in the data active = activation above about 40%; inconclusive = about 15% to 40%; inactive = below about 15%; note: compound concentration not given in the record; the text of the record calls up to 30% inactive
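Agonist mode: compounds alone added to overnight-plated D2 PathHunter cells for 90 min at 37 C, with 57 uM final dopamine (EC100) defining full response. Beta-arrestin recruitment detected by chemiluminescent reagent, read after 1 h at ambient temperature.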
CtBP-E1A blk: blocks the CtBP interaction with E1A | actives 0.49% (n = 340,000) | activity change, % (test concentration not listed) | AID 651724 | AlphaScreen GST-E1A/His-CtBP binding, 1536-well; hits give low values; control for the full effect not named in the record; in the data active means activity change below about -65%; inconclusive means about -30% to -65%; inactive means above about -30%; note: % is set by controls: 0 for no effect and ±100 for the full control effect; compound concentration not given in the record
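AlphaScreen with 125 nM GST-E1A and 125 nM His-CtBP (5X stocks) in Tris pH 8.0, 300 mM NaCl, BSA, Tween 20, TCEP. Compounds preincubated 2 h at 37 deg C, then glutathione donor/nickel acceptor beads added for 1 h at 37 deg C in dark.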
gsp antagonist: gsp mutant antagonism | gsp-mutant cells, cAMP HTRF, 30 min; control for the full effect not named in the record | Potency, µM (doses to about 76.9 µM), for inactives: top-dose activity change, negative = inhibition, hits mostly inhibitors | actives 0.4% (n = 340,000) | AID 624288; active = falling curve of any shape with a large fitted effect; inconclusive = falling curve, mostly with a smaller effect; inactive = flat or rising curve; cell line not stated here;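 note: intracellular cAMP measured with PDE inhibitor Ro 20-1724 present during compound exposure; potency is the fitted concentration of half-maximal effect; % is set by controls: 0 for no effect and ±100 for the full control effect; nearly all actives have a fitted effect of over 65% in size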
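Cells in G418 medium, seeded 16-24 h, 37C; buffer exchange to DPBS + 1 mM CaCl2, 0.5 mM MgCl2, 0.05% BSA; cpds in DMSO + […] (300 uM stock), 30 min 37C; HTRF cAMP detection.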
gsp ag: gsp mutant agonism; gsp mutant cells, cAMP HTRF, 30 min; control for the full effect not named in the record; Potency, µM (top dose mostly 76.9 µM), for the others: at the highest dose activation (cAMP increase), hits mostly activators; AID 624287; actives 0.13% (n = 340,000); active = well fitted activation curve with a large enough effect; inconclusive = small, poorly fitted or top-dose-only effect, or another doubt; inactive = no such curve, though single readings can be large or run the other way; cell line not stated here;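 note: phosphodiesterase inhibitor Ro 20-1724 added with compounds to block cAMP breakdown; potency is the fitted concentration of half-maximal effect; nearly all actives have a fitted effect of over 60% in size; about a fifth of the inactives were tested at one dose only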
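Cells stably selected in G418 were plated at 2000/well, grown 16-24 hr, then given compounds in DMSO with the PDE inhibitor […] (300 uM solution added) for 30 min at 37C; cAMP was read by HTRF.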
Six1-Eya2 blk: inhibitors of human Six1/Eya2 interaction | Q15475+O00167 | AlphaScreen GST-Six1/His-Eya2 binding, biochemical; hits give low values; control for the full effect not named in the record | activity change, % (concentration not given with the values) | actives 0.56% (n = 360,000) | AID 651725; in the data active = activity change below about -65%; inconclusive = about -30% to -65%; inactive = above about -30%; note: % is set by controls: 0 for no effect and ±100 for the full control effect
Target sequence (O00167 whole entry, looked up): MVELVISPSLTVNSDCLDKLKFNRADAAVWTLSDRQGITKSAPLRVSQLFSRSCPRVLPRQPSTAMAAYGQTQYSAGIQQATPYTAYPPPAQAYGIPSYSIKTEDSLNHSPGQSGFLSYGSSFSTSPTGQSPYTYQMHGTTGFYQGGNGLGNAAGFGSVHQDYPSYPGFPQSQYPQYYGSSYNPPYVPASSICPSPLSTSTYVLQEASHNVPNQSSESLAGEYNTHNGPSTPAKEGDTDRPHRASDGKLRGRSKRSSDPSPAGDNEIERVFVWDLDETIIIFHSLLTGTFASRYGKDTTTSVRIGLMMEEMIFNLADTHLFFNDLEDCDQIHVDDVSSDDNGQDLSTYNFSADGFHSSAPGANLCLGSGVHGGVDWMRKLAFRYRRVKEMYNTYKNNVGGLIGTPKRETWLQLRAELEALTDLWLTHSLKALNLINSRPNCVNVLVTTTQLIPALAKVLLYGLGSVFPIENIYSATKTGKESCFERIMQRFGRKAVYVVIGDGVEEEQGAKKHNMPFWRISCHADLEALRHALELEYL
Target sequence (Q15475 whole entry, looked up): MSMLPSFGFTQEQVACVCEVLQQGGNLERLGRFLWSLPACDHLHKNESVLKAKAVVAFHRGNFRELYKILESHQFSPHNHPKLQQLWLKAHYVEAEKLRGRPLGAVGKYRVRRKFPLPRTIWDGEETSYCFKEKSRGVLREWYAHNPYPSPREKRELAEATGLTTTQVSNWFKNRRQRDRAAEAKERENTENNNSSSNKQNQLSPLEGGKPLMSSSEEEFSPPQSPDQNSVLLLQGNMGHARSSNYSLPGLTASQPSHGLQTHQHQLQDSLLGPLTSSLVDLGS
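Compounds are tested against tagged Six1 and Eya2 proteins bridged by glutathione donor and nickel acceptor beads; after a one-hour incubation at 37 °C without light, AlphaScreen emission is recorded.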
D2 potentiator: human D2 receptor positive allosteric modulation; P14416; actives 0.23% (n = 360,000); potentiation, % (no concentration beside the values); AID 624464; DiscoveRx D2 beta-arrestin cells, luminescence, 90 min; 100% = 57 uM dopamine signal; active = potentiation of 50% or more; inconclusive = 30% to 50%; inactive = 30% or less;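 note: compound concentration not given in the record; tested on top of an EC20 dose of dopamine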
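D2 cells co-treated with compound plus 50 nM dopamine (EC20) for 90 min at 37 deg C to detect potentiation. Beta-arrestin recruitment was read as enzyme-fragment luminescence after 1 h at ambient temperature. Full response was set by 57 uM dopamine.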
Starred values were filed as active, the others as inactive; u = inconclusive; x = no result given; [ ] = remark or other dose.

(1) COc1ccc(C(C)(C)C)cc1NC(=O)COc1ccc(-c2nnco2)cc1
(2) COc1ccccc1C(CNC(=O)C1CC(=O)N(Cc2ccccc2)C1)N1CCCC1 (stereo not drawn)
(3) CCOc1ccc(CCNC(=O)c2nccnc2C(=O)O)cc1OCC
(4) Cn1c(SCC(=O)NC(=O)CN2CCCC2=O)nnc1-c1ccc(F)cc1
(5) CCOc1ccc(C2NC(=O)c3ccccc3O2)cc1 (stereo not drawn)
(6) CC(=O)NC(c1ccccc1)c1nc(-c2csc3ccccc23)cs1 (stereo not drawn)
(7) Cc1ccc(C(=O)Oc2ccc(C(=O)COC(=O)C3CC(=O)N(Cc4ccco4)C3)cc2)cc1 (stereo not drawn)
(8) CS(=O)(=O)c1ccccc1C(=O)N(CCc1ccccc1)Cc1ccccc1
assay / compound	1	2	3	4	5	6	7	8
D2 agonist	-0.8	-3.9	-0.8	4.3	-6.6	1.7	0.7	-2.0
CtBP-E1A blk	-14.1	x	3.3	17.0	-2.4	0.0	u	-3.4
gsp antagonist	u	7.3%	10.3%	10.7%	9.5%	x	1.5%	-11.3%
gsp ag	20.7%	8.7%	-15.6%	14.4%	-27.2%	x	-6.4%	16.3%
Six1-Eya2 blk	-2.2	3.1	0.7	-1.0	4.5	22.2	-84.9*	0.1
D2 potentiator	-3.6	-12.4	1.9	-3.5	10.9	7.5	-2.8	4.6

(9) O=S(=O)(NNC(=S)NCC1CCCO1)c1cc(Cl)ccc1Cl (stereo not drawn)
(10) CCc1ccc(OCC(=O)Nc2ccc3[nH]ncc3c2)cc1
(11) CC(=O)CCc1oc2ccccc2c1-c1ccccc1
(12) CCn1ncc([N+](=O)[O-])c1C(=O)Nc1c(C)nn(Cc2ccc(F)cc2)c1C
(13) Cc1oc(-c2ccccc2Cl)nc1CSCC(=O)NC1CC1
(14) COC1=NC2=NCCN2C(OC)=N1
(15) Cc1ccc(CNCC(=O)Nc2ccc(C)cc2Br)cc1
(16) CCOc1ccccc1NC(=O)CSc1ccccc1
assay / compound	9	10	11	12	13	14	15	16
D2 agonist	-3.5	3.4	-5.3	-0.2	-3.1	1.2	1.7	-4.4
CtBP-E1A blk	3.1	x	35.0	-2.4	2.4	4.8	10.1	14.2
gsp antagonist	5.4%	3.8%	-16.7%	-1.5%	-1.2%	1.4%	-7.7%	-14.9%
gsp ag	-1.4%[15.4 µM]	7.5%	-21.2%[15.4 µM]	-55.8%	3.8%	14.6%	20.0%[15.4 µM]	u
Six1-Eya2 blk	-0.5	1.1	43.1	-5.0	0.2	-0.2	6.8	16.1
D2 potentiator	-7.8	-2.7	-5.2	-2.9	-1.5	-4.6	-24.2	-7.2

(17) CCOC(=O)c1cc2sccc2n1CC(=O)Nc1ccc(OC)cc1OC
(18) O=C(CCN1CCN(c2ccccn2)CC1)Nc1ccc(F)cc1
(19) O=[N+]([O-])c1ccc(Cl)c(/C=N/n2c(COc3ccccc3)n[nH]c2=S)c1
(20) Cc1cc(Cl)c(S(=O)(=O)Nc2ccc3c(c2)OCCO3)cc1OCC(=O)NC1CCCCC1
(21) CN(C)CCCNc1nc2cc(-c3ccccc3CO)sc2c(=O)n1C
(22) CC(C)(O)C#Cc1ncc(C(F)(F)F)cc1Cl
(23) CN(C)S(=O)(=O)c1ccc(NC(=O)CN2C(=O)NC3(CCCC3)C2=O)cc1
(24) CN(C)CC/C=C1\c2ccccc2CSc2ccccc21
assay / compound	17	18	19	20	21	22	23	24
D2 agonist	0.3	12.2	0.1	-2.2	4.7	-4.1	-3.2	-4.1
CtBP-E1A blk	4.1	0.0	23.9	0.7	1.4	12.5	-2.6	-10.6
gsp antagonist	0.3%	3.6%	6.0%	-12.6%	x	-2.6%	5.7%	7.2%
gsp ag	8.0%	u	12.0%	-10.9%	x	-8.6%[15.4 µM]	16.1%	x
Six1-Eya2 blk	-1.9	-5.1	9.4	-5.4	-0.2	12.7	-6.1	-8.4
D2 potentiator	4.1	-17.3	-6.6	-2.3	-1.1	-1.8	-2.1	-33.1

(25) COc1ccc(C)cc1NC(=O)CN1CCN(S(=O)(=O)c2ccc3ccccc3c2)CC1
(26) COC(=O)c1cc(NC(=O)C2C3C=CC(C3)C2C(=O)O)cc(C(=O)OC)c1 (stereo not drawn)
(27) CCOC(=O)N1CCN(C(=O)CSc2nnc(-c3ccc(C)c(C)c3)o2)CC1
(28) O=C(Nc1nnc([C@H]2C[C@H](O)[C@@H](CO)O2)s1)c1cccc(C(F)(F)F)c1
(29) CCOC(=O)c1nc(N/N=C/c2ccccc2)sc1Br
(30) O=C(NCc1ccc2c(c1)OCO2)c1ccc(N2CCCC2=O)cc1
(31) O=C(CCN1C(=O)C2C3CCC(C3)C2C1=O)OCC(=O)c1ccc(Cl)cc1 (stereo not drawn)
(32) COc1ccc(CCN(C)CCC(=O)Nc2cc(C)ccc2C)cc1OC
assay / compound	25	26	27	28	29	30	31	32
D2 agonist	-3.1	0.4	4.2	-1.5	9.3	-1.1	-4.2	-4.5
CtBP-E1A blk	-1.1	1.8	4.3	9.2	-6.5	-4.5	-0.7	-8.3
gsp antagonist	-20.4%	9.8%	-9.0%	x	-7.1%	13.6%	0.6%	6.0%
gsp ag	-0.9%	-9.9%	-7.9%	x	-16.3%	3.9%	u	2.3%
Six1-Eya2 blk	-6.5	0.5	0.7	7.0	-3.9	3.3	0.5	8.3
D2 potentiator	-2.8	-5.8	1.2	-3.0	-2.1	-7.3	-14.0	-9.1

Limited to gsp antagonist and Six1-Eya2 blk, for some of the entries so far:
entry | molecule | gsp antagonist | Six1-Eya2 blk
11 | CC(=O)CCc1oc2ccccc2c1-c1ccccc1 | -16.7% | 43.1
12 | CCn1ncc([N+](=O)[O-])c1C(=O)Nc1c(C)nn(Cc2ccc(F)cc2)c1C | -1.5% | -5.0

Further results:
(33) COc1ccc(CCNC(=O)CSc2nnc(CNc3ccc(Cl)cc3)o2)cc1OC
(34) COc1ccc(C2(C)NC(=O)N(CC(=O)N(c3ccccc3)C3CCS(=O)(=O)C3)C2=O)cc1 (stereo not drawn)
(35) C[C@H](NC(=O)c1ccco1)C(=O)N1CCN(c2ccc(C(F)(F)F)cn2)CC1
(36) CN(C(=O)COC(=O)c1cc(=O)[nH]c2ccccc12)c1ccccc1
(37) C[C@H](O)[C@@H](C(=O)N1CCN(C(=O)OC(C)(C)C)CC1)n1cc(CCCCNC(=O)OC(C)(C)C)nn1
(38) O=C(c1cc(-c2cccc(O)c2)on1)N1CCN(C(c2ccccc2)c2ccccc2)CC1
(39) CS(=O)(=O)Nc1ccc(C(=O)Nc2ccc(S(=O)(=O)N3CCCC3)cc2)cc1
(40) Cc1ccccc1NC(=O)CSc1nn2c(=O)c(C)nnc2s1
assay / compound	33	34	35	36	37	38	39	40
D2 agonist	0.4	0.1	-2.3	-1.1	1.4	-2.7	-1.8	-1.3
CtBP-E1A blk	0.4	4.1	0.6	-13.7	5.0	-18.4	3.1	-92.1*
gsp antagonist	-30.3%	10.4%	-9.1%	5.2%	3.9%	-1.1%	1.6%	-3.5%
gsp ag	5.6%	9.9%	-13.1%	10.9%[15.4 µM]	7.0%	2.0%	21.3%[15.4 µM]	-7.6%[15.4 µM]
Six1-Eya2 blk	-0.3	0.4	-0.9	4.5	4.5	-9.9	7.8	-83.8*
D2 potentiator	-5.1	-1.1	0.0	-7.0	-1.4	-0.4	-8.4	1.3

(41) Cc1ccc(Cn2nnc3c(=O)[nH]c(C4CCN(S(=O)(=O)c5cc(C)ccc5C)CC4)nc32)cc1
(42) O=C1OC(c2ccco2)=N/C1=C\c1ccc(-c2cccc(C(F)(F)F)c2)o1
(43) Cc1ccc(S(=O)(=O)NCC23C=CC(O2)C2C(=O)N(c4ccccc4)C(=O)C23)cc1 (stereo not drawn)
(44) COCCNC(=O)C(c1ccccc1)N(C(=O)Cn1nnc2ccccc21)c1cccnc1 (stereo not drawn)
(45) CCOCCOC(=O)c1[nH]c2c(c1C)C(=O)CC(c1ccccc1)C2 (stereo not drawn)
(46) COc1ccc(-c2nnc3c4ccccc4c(C)nn23)cc1
(47) CC1(C)CC(=O)C=C(c2ccc(Oc3ccccc3)cc2)C1
(48) Cn1cc(CN2CCN(c3cnccn3)CC2)c(-c2cccc(Cl)c2)n1
assay / compound	41	42	43	44	45	46	47	48
D2 agonist	-3.7	-2.6	0.1	-4.3	-0.9	-1.8	-4.6	-0.2
CtBP-E1A blk	-10.7	x	3.3	-0.8	1.4	-20.7	-2.1	-11.6
gsp antagonist	-18.6%	4.1%	-5.7%	5.9%	-5.2%	7.8%	2.7%	7.3%
gsp ag	u	-71.0%[inhibitor]	-20.7%	-0.6%	19.0%[15.4 µM]	9.2%	-40.6%	0.9%[15.4 µM]
Six1-Eya2 blk	-5.6	-1.4	-4.6	3.2	7.9	-9.3	-5.4	-11.3
D2 potentiator	-17.4	-4.8	-4.8	-20.4	1.7	-1.7	-9.2	-12.4

(49) CCCCN(C(=O)COc1ccc(C)cc1OC)c1c(N)n(CCC)c(=O)[nH]c1=O
(50) COc1ccc(OC)c(/C=N/NC(=O)CCc2ccc(O)c(O)c2)c1
(51) CCC(=O)Nc1cc2c(cc1C(C)=O)OCCO2
(52) Cc1ccn(C)c(=N)c1
(53) O=C(Nc1ccc(S(=O)(=O)N2CCc3ccccc32)cc1)c1ccco1
assay / compound	49	50	51	52	53
D2 agonist	-0.6	10.9	-0.8	-4.5	2.2
CtBP-E1A blk	-1.5	-5.0	4.2	x	2.8
gsp antagonist	5.8%	3.9%	-9.3%	7.4%	-18.2%
gsp ag	-28.9%	6.2%	-1.5%	-46.5%[inhibitor]	-50.0%[inhibitor]
Six1-Eya2 blk	1.0	-8.6	3.3	2.3	0.7
D2 potentiator	-8.2	7.4	-23.5	7.3	-9.7

Quoted at random: three entries already listed
(53) O=C(Nc1ccc(S(=O)(=O)N2CCc3ccccc32)cc1)c1ccco1
(51) CCC(=O)Nc1cc2c(cc1C(C)=O)OCCO2
(52) Cc1ccn(C)c(=N)c1
assay / compound	53	51	52
D2 agonist	2.2	-0.8	-4.5
CtBP-E1A blk	2.8	4.2	x
gsp antagonist	-18.2%	-9.3%	7.4%
gsp ag	-50.0%[inhibitor]	-1.5%	-46.5%[inhibitor]
Six1-Eya2 blk	0.7	3.3	2.3
D2 potentiator	-9.7	-23.5	7.3
